Screening data: PubChem BioAssay, National Center for Advancing Translational Sciences (NCATS)
Vaccinia mCherry – vaccinia inhibition (mCherry reporter) | 0.63% of 310,000 active | Potency, µM (titrated, usually from 36.5 µM), inactives show at the highest dose activity change, negative = inhibition, hits mostly inhibitors | Vaccinia virus mCherry reporter infection, fluorescence; about a quarter of the inactives have no number | AID 720579; active = well fitted inhibition curve with a large enough effect; inconclusive = small, poorly fitted or top-dose-only effect; inactive = no such curve, though single readings can be large or run the other way; tested in A549 cells; further: nearly all actives have a fitted effect of over 35% in size; inactives centre near -10
VACV Venus inh – vaccinia inhibition (Venus reporter); AID 720580; Potency, µM (highest dose often 36.5 µM), inactives show at the highest dose activity change, negative = inhibition, usual class: inhibitors; 0.46% of 330,000 active; Vaccinia virus Venus reporter expression, fluorescence; active means well fitted inhibition curve with a large enough effect; inconclusive means small, poorly fitted or top-dose-only effect; inactive means no such curve, though single readings can be large or run the other way; tested in A549 cells; further: nearly all actives have a fitted effect of over 30% in size; inactives centre near -10
* = called active by the depositor; i = inactive; ? = inconclusive; . = no result given; ! = a repeat was not active; [ ] = remark or other dose. On the % scale 0 is the no-effect control and ±100 the full control effect; potency means the concentration at half of the fitted maximal effect.

canonical_smiles	Vaccinia mCherry	VACV Venus inh
CC(NC(c1ccccc1)c1ccccc1)C(=O)N1CCCc2ccccc21 (stereo not given)	-25%	?
Cc1cc(C)n2nc(SC(C)C(=O)Nc3ccc(Cl)cn3)nc2n1 (stereo not given)	0%	3%
COCCNC(=O)c1cc2c(c(-c3cccc(-c4cc5ccccc5o4)c3)n1)[C@@H](CCO)N(S(=O)C(C)(C)C)C2 (stereo not given in full)	i	4%
CCOc1ccc(NC(=O)C2CCN(c3nnc(-n4c(C)ccc4C)s3)CC2)cc1	-6%	-13%
Cc1cccc2cc(CN(Cc3cccs3)S(=O)(=O)c3ccc4c(c3)OCCO4)c(=O)[nH]c12	-27%	-20%
Cc1cccc(-n2c(O)c(C=NC34CN5CN(CN(C5)C3)C4)c(=O)[nH]c2=O)c1	i	-3%
O=C(/C=C/c1ccc2c(c1)OCO2)c1ccco1	i	-1%
COc1ccc([C@H]2CC(=O)C[C@@H](CCn3cc(CC4CCCC4)nn3)O2)cc1	1%	2%
CC(=O)Nc1ccc(C(=O)N2CCCC2)cc1	-5%	4%
COc1cccc2cc(C(=O)NCCc3ccccc3)c(=O)oc12	-3%	-6%
CN(C)S(=O)(=O)c1cc(NC(=O)COC(=O)CC2Sc3ccccc3NC2=O)ccc1Cl (stereo not given)	-4%	-4%
Cc1ccccc1NC(=O)CN1C(=O)NC2(CCCCC2)C1=O	.	-23%
Cc1cccc(NC(=O)CN2CCN(C(=O)c3cc(C4CC4)nn3-c3ccccc3)CC2)c1C	i	-12%
COC(=O)c1c(C)oc2ccc(NS(=O)(=O)c3cc(OC)ccc3OC)cc12	?	?
CN(Cc1ccc2c(c1)CCCN2C)C(=O)[C@H]1O[C@@H](n2cnc3c(N)ncnc32)[C@H](O)[C@@H]1O	i	-15%
COc1ccc(N=C2C(=O)N3c4c(cccc42)C(C)=CC3(C)C)cc1	i	-4%
NNC(=O)Cc1cc(=O)[nH][nH]1	i	-9%
C=C(C)CNC(=S)NNC(=O)CCn1c2ccc(Cl)cc2c2cc(Cl)ccc21	-28%	?
Cc1ccc(-c2nc(CS(=O)(=O)CC(=O)N3CCCCCC3)c(C)o2)cc1	?	?
COc1cccc(Nc2ccc(-n3ccnc3)nn2)c1	i	1%

The closing 2 compounds of the section before open the next one.
canonical_smiles	Vaccinia mCherry	VACV Venus inh
Cc1ccc(-c2nc(CS(=O)(=O)CC(=O)N3CCCCCC3)c(C)o2)cc1	?	?
COc1cccc(Nc2ccc(-n3ccnc3)nn2)c1	i	1%
CCOc1ccc(NC(=O)c2c(NC(=O)Cc3ccccc3)sc3c2CCC(C)C3)cc1 (stereo not given)	-16%[7.34 µM]	-8%[7.34 µM]
C[n+]1ccc(/C=C/c2ccc(Br)cc2)cc1	?	?
CCOc1ccc(N2CC(C(=O)Nc3nnc(CC)s3)CC2=O)cc1 (stereo not given)	i	-9%
Cc1ccc(CCNC(=O)C2CC(c3cc(C(F)(F)F)cc(C(F)(F)F)c3)=NO2)cc1 (stereo not given)	-16%	-13%
COc1ccc2cc(C(=O)C3CCCN(Cc4cnc(N5CCOCC5)s4)C3)ccc2c1 (stereo not given)	?	-21%
O=S(=O)(NCc1ccco1)c1cccc2cccnc12	.	-14%
Cc1ccc(C(=O)Nc2nnc(-c3ccco3)o2)cc1C	-24%	-17%
O=C(CSc1nc2ccccc2c(=O)n1-c1ccccc1)NCC1CCCO1 (stereo not given)	-5%	8%
Cc1cccc(NC(=O)c2ccc3nccnc3c2)c1C	-18%	-4%
CCCC(C)n1[nH]c(=O)c2c1NC(=O)CSC2c1ccc(OC)cc1 (stereo not given)	.	-27%
Cc1ccc(NC(=O)c2cccc3c(=O)c4c([nH]c23)CCCC4)c(C)c1	-7%	-6%
O=C(c1[nH]c(C(F)(F)F)nc1-c1ccccc1)N1CCN(c2ncccn2)CC1	-25%	-18%
COC(=O)c1cnc(SCc2ccc(Cl)cc2)n1C	-15%	-13%
O=C(C[C@H]1C[C@H](C(=O)N2CCOCC2)[C@@]2(CCC3CCCC3)c3[nH]c4cc(-c5ccco5)ccc4c3CCN2C1=O)NCc1ccco1	?	-18%
CCOC(=O)c1sc(NC(=S)NC(=O)c2cccc(OC)c2)nc1C	-11%	-2%
CCC(C)c1ccc(NC(=O)NCc2cccnc2)cc1 (stereo not given)	-23%	-12%
CC(OC(=O)/C=C/c1ccc2ccccc2n1)C(=O)Nc1ccc(S(N)(=O)=O)cc1 (stereo not given)	?	?
CCC1CCCCN1CCCNC(=O)CCCNC(=O)Cn1cnc2sc3c(c2c1=O)CCCC3 (stereo not given)	i	-25%
CCC1=Nc2cc(C(=O)NCc3ccccc3OC)ccc2Sc2ccc(Cl)cc21	-13%	-17%
Cc1c(C)n(Cc2ccccc2)c2ccc(C(=O)NCCCN3CCOCC3)cc12	-26%	-21%
Cc1[nH]n(-c2ccccc2)c(=O)c1C=NCC1CCCO1 (stereo not given)	-5%	-10%
CCCc1cc(=O)[nH]c(SCC(=O)C(C)(C)C)n1	-18%	-21%
O=[N+]([O-])c1cc([N+](=O)[O-])c(Oc2cc(F)ccc2F)cc1NN1CCCCC1	?	-7%
CCC(C(=O)NN1C(=O)c2ccccc2C1=O)c1ccccc1 (stereo not given)	-12%	-8%
Cc1c(NC2(C#N)CCCC2)c(=O)n(-c2ccccc2)n1C	-10%	-4%
CC1(c2nc3ccccc3[nH]2)CCCC2=Nc3ccccc3CN21 (stereo not given)	14%	5%
COc1ccc2oc(C(=O)Nc3nc(-c4ccccn4)cs3)c(C)c2c1	-26%	-10%
Cc1cc(=O)[nH]c(SCC(=O)c2ccc(O)c(O)c2)n1	-1%	-6%
Fc1ccccc1N1CCN(c2ncnc3[nH]ncc23)CC1	-12%	8%
COc1cc(-c2cnc3c(NC=O)cc(-c4ccc(C)cc4)cn23)cc(OC)c1OC	?	?
CN(NC(=O)c1ccc(Cl)cc1)c1ncc(C(F)(F)F)cc1Cl	-24%	-17%
COCCNC(=O)c1ccccc1-c1nc(-c2ccccc2OC)no1	-11%	0%
CCOc1cc(C(=O)Nc2ccc3oc(-c4ccc(CC)cc4)nc3c2)cc(OCC)c1OCC	-25%	-23%
O=C(N/N=C/c1ccccc1O)C1CC(=O)N(c2ccc(F)cc2)C1 (stereo not given)	14µM*	?
CCOc1ccc(NC(=O)CN2C(=O)CC(C)Sc3ccccc32)cc1 (stereo not given)	4%	0%
CCS(=O)(=O)N1CCC(C(=O)c2ccc(Cl)cc2)CC1	-11%	-17%
COc1cc(/C=C/C(=O)NNC(=O)c2cccc(S(=O)(=O)N(C)C)c2)cc(OC)c1OC	-14%	-10%
CSc1nsc(SCC(=O)Nc2ccccc2F)n1	-13%	-13%
CCOC(=O)c1c(NC(=O)C2COc3ccccc3O2)sc2c1CC(C)(C)NC2(C)C (stereo not given)	?	?
CCOCCCNC(=O)c1ccc(NC(=O)N2CCCCc3ccccc32)cc1	-11%	-1%
CCc1cc2c(cc3c(=O)n(CC(=O)N4CCC(C)CC4)nc(CC)n32)s1	-15%	-19%
COc1cccc(CN2c3ccccc3-c3nc(SCC(=O)Nc4ccccc4Cl)ncc3S2(=O)=O)c1	15%	11%
Cc1cccc(CSc2nc(-c3cccc(C)c3)nc3c2Cc2c(CO)cnc(C)c2O3)c1	-18%	-12%
CCC(C)NC(=O)c1ccc(Cn2c(=O)c3cccn3c3cccnc32)cc1 (stereo not given)	-10%	-9%
CC(=O)N1c2ccc(S(=O)(=O)N3CCC(C(=O)Nc4ccc(F)cc4)CC3)cc2CC1C (stereo not given)	i	-16%
Cc1nn(CC(=O)O)c(C)c1N	2%	-8%
CC(NCc1ccc(Cl)cc1)C(O)c1ccccc1 (stereo not given)	-13%	8%
O=C(Cc1ccccc1)NCCSCc1ccco1	-21%	0%
CC(NC(=O)COC(=O)CSCc1ccccc1)c1ccccc1 (stereo not given)	-12%	-1%
CC1CCN(CCOc2cccc(Br)c2)CC1	-11%	-5%
COc1ccc(OCC(=O)NC2CC(C)(C)NC(C)(C)C2)cc1	i	-5%
COc1cccc(OCc2cc(C3Nc4ccccc4C(=O)N3c3ccccc3)ccc2OC)c1 (stereo not given)	-13%	-5%
COc1ccc(CC(=O)NCc2nc3cccnc3n2Cc2ccc(C)cc2)cc1	-16%	-9%
COc1ccc(NC(=O)c2cccc(S(=O)(=O)N3CCCCC3)c2)c(OC)c1	-26%	-3%
COc1ccccc1NS(=O)(=O)c1ccc(C)c(C(=O)NCC(c2ccco2)N(C)C)c1 (stereo not given)	-1%	-18%
Cc1nc2sccn2c(=O)c1S(=O)(=O)Nc1cc(C(F)(F)F)ccc1Cl	-7%	-22%
S=C(S)OC1CC2CC1C1CCCC21 (stereo not given)	i	-4%
CCCCOC(=O)c1nnc(-c2ccc(Cl)cc2)o1	-3%	-21%
CC(NC(=O)/C(C#N)=C/c1cn[nH]c1-c1ccccc1)c1ccccc1 (stereo not given)	-28%	-22%
COc1cc(Cl)c(C)cc1NC(=O)C1CCCN(c2ncnc3onc(-c4ccc(F)cc4)c23)C1 (stereo not given)	-2%	-15%

Remaining list, next part
canonical_smiles	Vaccinia mCherry	VACV Venus inh
O=C1c2cccc(N3CCNCC3)c2C2CCCCN12 (stereo not given)	16%	-5%
CC1CCc2c(sc3ncn(CC(=O)N4CCCCC4)c(=O)c23)C1 (stereo not given)	i	-20%
O=C(COc1ccccc1Cl)NCCC1=CCCCC1	-22%	-11%
CNC(=O)[C@@]1(Cc2ccccc2)C=C[C@@H](C)N1C(C)=O	-11%	-2%
O=C(NC1CCCCC1)c1cc(-c2ccccc2O)on1	1%	-14%
O=C(Nc1ccc(N2CCCC2=O)cc1)c1cccc(F)c1	-5%	-17%
O=C(c1cccc2ccccc12)C1CCCN(C2CCC2)C1 (stereo not given)	-16%	-4%
COC(=O)c1ccc(C(=O)OC)c(NC(=S)N2CCC(C)CC2)c1	-11%	-7%
Cc1ccc(N2CC(C(=O)Nc3cccc(S(=O)(=O)N4CCOCC4)c3)CC2=O)cc1 (stereo not given)	i	-29%
CCN=C1S/C(=C/c2ccc(-c3ccc(Cl)cc3C(=O)O)o2)C(=O)N1CC	-2%	-1%
CCCCN(C)C(=O)C1CCCN(c2ncnc3onc(C)c23)C1 (stereo not given)	-20%	-18%
Cc1cc2oc(=O)cc(CN3CCc4ccccc43)c2cc1Cl	10%	3%
COc1ccccc1C(=O)NCCC(=O)Nc1ccncc1	-18%	-6%
O=C(NCc1cccs1)C1CCCN(S(=O)(=O)c2cnc[nH]2)C1 (stereo not given)	4%	-4%
CSc1ncnc2c1ncn2CCCN1CCN(c2ccccn2)CC1	-23%	-19%
Cn1cc(C(=O)N2CCN(c3cccc(C(F)(F)F)c3)CC2)c2c3ccccc3n(C)c2c1=O	-21%	-7%
S=C1NC[C@H](Cc2cccc3ccccc23)N1CC1CCCCC1	?	-5%
O=C1C(=Cc2cccc(F)c2)Cc2ccccc21	i	-7%
N[C@H](Cc1ccccc1)C(=O)O	i	-7%
CCOc1ccccc1NC(=O)C1CCN(S(=O)(=O)c2ccc3c(c2)CCCN3C(C)=O)CC1	1%	-7%

Profiles, quoted from the list. Screens in order: Vaccinia mCherry, VACV Venus inh
O=C1C(=Cc2cccc(F)c2)Cc2ccccc21 in the list: i, -7%
Cn1cc(C(=O)N2CCN(c3cccc(C(F)(F)F)c3)CC2)c2c3ccccc3n(C)c2c1=O in the list: -21%, -7%
O=C(Nc1ccc(N2CCCC2=O)cc1)c1cccc(F)c1 in the list: -5%, -17%
CCOc1ccccc1NC(=O)C1CCN(S(=O)(=O)c2ccc3c(c2)CCCN3C(C)=O)CC1 in the list: 1%, -7%

The list continues.
canonical_smiles	Vaccinia mCherry	VACV Venus inh
Nc1ccc(N=Nc2ccccc2)c2ccccc12	-1%	-13%
CC(OC(=O)c1cccc(-n2cnnn2)c1)C(=O)c1ccccc1 (stereo not given)	-27%	-3%
O=C(NN=Cc1ccc(Cl)cc1Cl)c1ccccc1	-5%	-12%
C(=N/N1CCN(c2ccccc2)CC1)/c1ccncc1	-13%	-13%
COc1ccc(/C=N/NC(=O)C2C3CCCCC32C)cc1OC (stereo not given)	i	-3%
N#C/C(=C\c1ccco1)C(=O)Nc1ccc(S(N)(=O)=O)cc1	4%	-3%
Cc1ccc(NC(=O)N2CCN(C)CC2)cc1NC(=O)N1CCN(C)CC1	-12%	-13%
CCOC(=O)[C@]12Cc3cc4c(cc3[C@H]1N(Cc1ccccc1)C(=O)c1ccccc12)OCO4	11µM*!	?
Cc1cccc(C(C)C)c1NC(=O)COC(=O)C1CC(=O)N(Cc2ccccc2)C1 (stereo not given)	-14%	-12%
Cc1ccc(OCC(=O)N/N=C\c2ccc(O)c([N+](=O)[O-])c2)c([N+](=O)[O-])c1	i	-2%
CCNC(=O)C1(C)CCN1C(=O)Cc1ccc(C(C)C)cc1 (stereo not given)	15%	6%
